Yeast UUG start: modulators of start codon recognition fidelity in yeast. S. cerevisiae UUG-firefly luciferase reporter, luminescence/redox ratio. activity score, % at 18.7 µM. actives 0.13% (n = 350,000);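 active = replicate mean at a twofold rise or more, about +100% in these data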;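 note: firefly luciferase made from a UUG start codon reports start codon fidelity; reporter light over untreated wells divided by growth signal over untreated wells; some hits fall short of that in this replicate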
CSC inhib: blocks cancer stem cells. inhibition, % at 7.5 µM. cancer stem cell-like cells viability, luminescence. actives 1.1% (n = 300,000);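 active = mean at 75% or more and at least half the replicates too; inconclusive = mean and replicates disagree; tested in HMLE shEcad cells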;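 note: 0% = median of negative and 100% = median of positive control wells; the first replicate is given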
Rce1 inhib: blocks yeast Ras-converting enzyme; yeast membranes, quenched prenylated peptide cleavage fluorescence; actives 0.27% (n = 290,000); calls only;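 active = fall in fluorescence gain of 50% or more versus controls, with final raw signal at or below 3038400; inconclusive = same 50% fall but final raw signal above 3038400; inactive = fall in fluorescence gain under 50%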;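 note: plate controls were neutral control wells for no effect and wells lacking membranes for full effect; tested at 10 µM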
HIV Env fusion: blocks HIV Env-driven cell-cell fusion | HeLa-JRFL Env/CEM21 cell fusion, luciferase | inhibition, % at 12.3 µM | actives 1.1% (n = 360,000) | AID 651610;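 active = mean replicate inhibition score of at least 50 and every replicate individually at or above 50; inconclusive = only one of the two criteria met; inactive = mean below 50 and not all replicates reaching 50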;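 note: 0% = plate neutral controls and 100% = maraviroc near 300 nM; one replicate is shown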
eIF4H inh: inhibitors of RNA binding by human eIF4H | eIF4H fluorescence polarization binding assay | Q15056 | AID 2012 | actives 0.94% (n = 290,000) | inhibition, % at 35 µM;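 active = 50% or more with normal probe brightness, or confirmed in later tests; inconclusive = above 50% with abnormal brightness, or retests that disagree; inactive = below 50% or failed in later tests; about a fifth of its hits are not listed in these tables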;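 note: calls also rest on retests at 20 µM and on dose response follow-up; 0% = protein and probe with vehicle and 100% = probe without protein; strong numbers were not always called active; many hits fall short of the cut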
PABP FP inh: PABP-poly(A) binding inhibition; P11940; inhibition, % at 35 µM; AID 2014; actives 1% (n = 290,000); PABP-poly(A) RNA binding, fluorescence polarization;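 active = 50% or more with normal probe brightness, or confirmed in later tests; inconclusive = above 50% with abnormal brightness, or retests that disagree; inactive = below 50% or failed in later tests; about a fifth of its hits are not listed in these tables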;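 note: calls also rest on retests at 20 µM and on dose response follow-up; controls were probe without protein and protein plus probe with vehicle; some compounds called inactive have numbers as strong as hits; many hits fall short of the cut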
Target sequence (P11940 whole entry, looked up): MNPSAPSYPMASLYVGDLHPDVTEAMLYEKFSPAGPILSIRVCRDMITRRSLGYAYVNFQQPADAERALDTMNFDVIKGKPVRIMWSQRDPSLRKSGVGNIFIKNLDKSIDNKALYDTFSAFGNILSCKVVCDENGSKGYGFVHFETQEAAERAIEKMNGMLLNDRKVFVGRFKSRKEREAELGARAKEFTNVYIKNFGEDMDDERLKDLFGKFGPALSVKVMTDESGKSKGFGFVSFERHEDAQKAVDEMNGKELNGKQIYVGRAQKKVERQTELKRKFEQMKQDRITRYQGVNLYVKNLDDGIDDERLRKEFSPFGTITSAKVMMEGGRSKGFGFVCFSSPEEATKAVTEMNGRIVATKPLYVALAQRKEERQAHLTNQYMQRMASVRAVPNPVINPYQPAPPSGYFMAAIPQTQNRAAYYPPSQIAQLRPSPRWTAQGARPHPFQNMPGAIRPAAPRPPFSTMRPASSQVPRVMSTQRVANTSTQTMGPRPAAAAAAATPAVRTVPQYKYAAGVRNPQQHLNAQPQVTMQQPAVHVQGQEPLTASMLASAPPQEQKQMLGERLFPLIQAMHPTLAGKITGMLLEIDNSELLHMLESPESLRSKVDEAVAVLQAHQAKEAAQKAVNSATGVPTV
MT1-MMP act inh: inhibitors of human MT1-MMP activation; HT1080 RFP-PRO-GFP cells, GFP/RFP ratio fluorescence, overnight; percent of plate control window, DMSO zero; AID 651647; actives 0.061% (n = 360,000); P50281; GFP/RFP ratio change, % at 20 µM;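 active = GFP/RFP ratio change of at least 30% with cell ATP level not reduced by more than half and red fluorescence within 50% of control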; note: strong numbers were not always called active
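Assay system: HT1080 cells carrying an RFP-PRO-GFP reporter | Dosing: Single dose of 20 µM compound, 1% DMSO final | Incubation: Cells overnight before dosing, compound overnight, 37 °C, 5% CO2 | Evaluation: GFP/RFP fluorescence ratio | Control set: DMSO and RFP-L50D-GFP cell wells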
MT1-MMP act inh RFP: recorded beside MT1-MMP act inh, whose call it bears; RFP signal change, %; measured here: RFP expression control read;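 0 = vehicle wells; hits needed this value within 50% of zero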
* = called active by the depositor; i = inactive; ? = inconclusive; . = no result given.

SMILES	Yeast UUG start	CSC inhib	Rce1 inhib	HIV Env fusion	eIF4H inh	PABP FP inh	MT1-MMP act inh	MT1-MMP act inh RFP
CC1=C(C(=O)NCc2ccccc2)C(c2cccnc2)n2ncnc2N1 (centres undefined)	-27	12	i	.	1	1	0	4
COc1ccccc1-n1c(SCC(=O)N2CCCC2)nc2cccnc21	4	-2	i	.	0	-6	-2	-1
Cc1c(Cc2ccccc2)sc(NC(=O)Cc2ccccc2)c1C(N)=O	-12	13	i	.	.	.	-2	-5
O=C(N/C(=C/c1ccccc1Cl)C(=O)N1CCCCC1)c1ccco1	2	-9	i	8	14	-2	-2	4
CNCc1c(OCc2ccccc2F)ccc2ccccc12	-3	8	i	2	6	-12	-1	1
CCOc1ccc(CCNC(=O)Nc2ccccc2)cc1OCC	2	1	i	5	-11	-4	0	-1
N#Cc1nc(-c2ccccc2Cl)oc1N1CCN(C(=O)c2ccco2)CC1	-6	-8	i	-22	-2	-14	-2	1
COc1ccc(CNc2nc3nc(-c4ccccc4)cc(=O)n3[nH]2)cc1OC	-22	-5	i	.	16	6	10	0
O=C(c1cc(COc2cccc3cnccc23)on1)N1CCC(c2ccccc2Cl)C1 (centres undefined)	-1	57	i	15	.	.	0	-17
CCOC(=O)CN=C/C(C(=O)Nc1nccs1)=C(/C)O	.	.	i	-8	-1	-5	2	5
O=C(O)c1ccc(Cl)c(S(=O)(=O)Nc2cccc(C(=O)Nc3cccc(C(F)(F)F)c3)c2)c1	-9	.	i	4	-7	-7	4	0
CCS(=O)(=O)Nc1ccc2c(c1)N(C(C)=O)c1ccccc1CC2	-4	-8	i	.	9	14	4	3
Cc1nnc(N/N=C/c2ccc(O)c([N+](=O)[O-])c2)[nH]c1=O	-17	7	i	-4	3	2	1	2
COc1cccc(/C=C/C(=O)Nc2ccc3nc4n(c(=O)c3c2)CCCC4)c1OC	.	2	i	11	-6	-1	6	-2
CCOC(=O)c1sc(NC(=O)CSc2nc(-c3ccco3)cc(C(F)(F)F)n2)c(C#N)c1C	-13	24	i	-45	-13	-3	7	5
CCN1CCN(c2oc(-c3ccccc3)nc2S(=O)(=O)c2ccc(C)cc2)CC1	6	.	.	-51	.	.	2	0
FC(F)(F)c1nnc(-c2ccccc2)nc1Sc1ccccc1	5	44	i	.	-1	-9	-6	3
CCOCCCNCc1ccc(OC)cc1	-15	.	i	-17	-9	2	0	2
O=S(=O)(c1ccc(Cl)cc1)N1CCN(Cc2ccncc2)CC1	-9	14	i	-3	0	0	-1	-1
COc1ccc(OCc2cc(C(=O)N3CCN(C4CCCC4)CC3)no2)c(Cl)c1	-14	29	.	-52	-3	2	-3	-4
COc1cc(NC(=O)CN2C(=O)NC3(CCOc4ccccc43)C2=O)cc(OC)c1 (centres undefined)	-10	6	.	.	.	.	3	3
CCCCn1c(N)c(N(CC(C)C)C(=O)CSCc2c(C)noc2C)c(=O)[nH]c1=O	-11	8	i	3	.	.	1	3
COc1ccc(NC(=O)CN(c2ccc(C)cc2)S(C)(=O)=O)c(OC)c1	-12	-9	i	.	-11	-6	-1	0
CCCN(CC1CC1)c1nc(C)nc(Nc2c(Cl)cc(Cl)cc2Cl)c1Cl	8	86*	i	-2	.	.	-4	-12
CC(C)[C@H](CO)Nc1nc(Nc2ccc(Cl)c(C(=O)O)c2)c2ncn(C(C)C)c2n1	-16	10	i	3	8	-5	-1	5

Taken from above:
Result for `O=C(N/C(=C/c1ccccc1Cl)C(=O)N1CCCCC1)c1ccco1` in MT1-MMP act inh RFP: 4
Result for `CC(C)[C@H](CO)Nc1nc(Nc2ccc(Cl)c(C(=O)O)c2)c2ncn(C(C)C)c2n1` in MT1-MMP act inh: -1

(more compounds)
SMILES	Yeast UUG start	CSC inhib	Rce1 inhib	HIV Env fusion	eIF4H inh	PABP FP inh	MT1-MMP act inh	MT1-MMP act inh RFP
COc1cccc(/C=N\NC(=O)c2sc(N)nc2C)c1OC	-23	.	i	.	-10	-13	7	2
CC(=O)Nc1c(C(=O)N2CCN(c3ccccn3)CC2)cnn1-c1ccc(C)cc1	.	0	i	.	-7	-9	-1	3
CCC(C)(c1nnnn1-c1c(C)cccc1C)N(N=O)c1ccccc1Cl (centres undefined)	.	3	.	8	11	-4	-3	-6
O=C(O)c1cnc(-c2ccccc2)nc1Oc1ccccc1	-12	0	i	26	11	4	3	0
NNC(=O)CS(=O)(=O)c1ccc(Cl)cc1	.	-1	i	7	2	12	-3	0
O=C(CSc1nnc(-c2c[nH]c3ccccc23)o1)c1ccccc1	.	-10	i	.	-8	-2	-3	-4
CC(C)(C)OC(=O)N[C@@H](Cc1ccccc1)C(=O)N1CCC(C(=O)N[C@@H](CCC(N)=O)C(=O)O)CC1	-4	-16	i	-10	-13	4	1	2
CCOC(=O)C1CCN(C(=O)COC(=O)c2c(C)c(CC)nc3ccccc23)CC1	-13	-20	.	.	.	.	-1	-3
CCSc1nnc(NC(=O)C2CC=CCC2C(=O)O)s1 (centres undefined)	.	-5	i	.	36	8	-1	2
O=C(O)C[C@H]1c2ccccc2S(=O)(=O)N1C1CCCC1	-10	3	i	-6	.	.	2	9
Cc1ccc2c(c1)N(C(=O)CCC(=O)N1CCC(C(N)=O)CC1)CCO2	-7	45	i	-30	-9	5	-7	-1
O=C(Nc1cccc(F)c1)c1ccc(CSc2ccccc2)o1	.	18	i	4	-7	24	1	-1
Cc1ccc(CSc2nnc(C)c(=O)[nH]2)cc1	.	0	i	5	5	-18	1	8
Cc1oc(-c2ccccc2)nc1C(=O)OCC(=O)NC(=O)NCC(C)C	-7	-11	i	-38	-4	-4	3	-2
O=C(c1cccc(S(=O)(=O)NCCOc2ccccc2)c1)N1CCN(c2ncccn2)CC1	-1	0	i	27	1	13	7	-3
ClC(Cl)(Cl)C1=NCc2nnn(Cc3ccccc3)c2N1	-16	.	.	1	.	.	2	4
NC(=O)Cn1c(S(=O)(=O)Cc2ccccc2)nc2ccccc21	-18	-9	i	-47	.	.	-1	2
Cc1ccc(S(=O)(=O)N2CCN(C(=O)c3cc(S(=O)(=O)N(C)C)ccc3N3CCCC3)CC2)cc1	-3	-4	i	8	.	.	-2	-4
O=C1CC(N2CCC(C(=O)N3CCCCC3)CC2)C(=O)N1 (centres undefined)	-9	-11	i	.	0	2	0	0
CCNc1ccc(S(=O)(=O)N(C)C)cc1NCC(=O)Nc1ccccc1F	.	.	i	14	14	4	1	-1
CN(Cc1ccccc1)C(=O)COC(=O)c1cc(=O)c2ccccc2o1	-10	-8	.	-8	.	.	2	2
CC(=O)c1csc(Nc2ccccc2Cl)n1	-24	-10	i	-43	-9	-4	1	0
COc1ccc(-c2nc(CS(=O)(=O)CC(=O)Nc3ccc(Cl)cc3)c(C)o2)cc1	-5	17	i	14	-20	-13	-6	-10
Cc1ccc(CN2CCC(CO)(CC3CCCCO3)CC2)o1 (centres undefined)	.	.	i	-1	2	3	-1	2
O=C(c1cccc(F)c1)N(Cc1nc2ccccc2c(=O)[nH]1)C1CCCC1	.	.	i	1	-1	-2	-1	-10

Continuation:
SMILES	Yeast UUG start	CSC inhib	Rce1 inhib	HIV Env fusion	eIF4H inh	PABP FP inh	MT1-MMP act inh	MT1-MMP act inh RFP
CCc1ccc(-c2cc(C)no2)cc1S(=O)(=O)N1CCOc2ccc(C)cc21	7	35	i	-3	6	-2	6	-18
COc1ccc(C(CC(=O)NCc2ccco2)c2ccc(F)cc2)cc1 (centres undefined)	0	13	i	5	2	1	5	-2
COC(=O)c1ccccc1NC(=O)CSc1ccccn1	-18	-2	i	-126	-2	2	-4	-3
N#CCC(=O)N/N=C1\CCCCC1C1CCCCC1 (centres undefined)	.	12	i	.	6	6	-5	2
Cc1ncoc1C(=O)N1CCCC(CCC(=O)NCc2ccccc2F)C1 (centres undefined)	1	-9	i	2	0	-4	3	1
O=[N+]([O-])c1ccc(Oc2ccc(F)cc2Br)c2ccncc12	.	-8	i	.	11	-8	-14	-11
CC(C)OC(=O)CSc1nc2cccnc2n1-c1ccc(F)cc1	-12	-9	.	-7	-4	-1	-2	-6
CCOC(=O)C1CCCN(c2ccc(NC(=O)c3snc4c(=O)[nH]c(C)nc34)cc2)C1 (centres undefined)	-12	-8	i	.	13	4	21	-3
O=C(NCC1CCCCC1)c1cc(S(=O)(=O)N2CCCCC2)ccc1Cl	-1	.	.	10	.	.	0	-10
C=CCn1cccc(C(=O)Nc2ccc(OC)c(OC)c2)c1=O	.	-14	i	22	1	-21	3	-3
O=C(NCCC1CCCCN1S(=O)(=O)c1cccs1)C(=O)Nc1ccccc1F (centres undefined)	1	-4	i	-4	.	.	-1	-3
Cc1c(CC(=O)NCCCC(=O)O)c(=O)oc2cc3occ(-c4ccccc4)c3cc12	-4	0	i	-11	-3	9	17	5
COc1ccc(N(CC(=O)NCCSCc2cccc(Cl)c2)S(C)(=O)=O)cc1Cl	-5	-4	i	?	1	7	6	-4
COc1cc(NC(=O)COC(=O)/C=C/c2c(C)nn(-c3ccc(F)cc3)c2Cl)cc(OC)c1	.	-6	i	17	-11	17	5	1
CC(C)NC(=O)N1CCC(c2nc3ccccc3s2)CC1	-3	-1	i	16	10	2	4	0
CC[C@H]1C/C=C\Cc2ccccc2[C@@H](C(=O)C[C@@H](O)CC(C)=O)OC1=O	-8	.	.	-12	.	.	0	2
Cc1cc(C)nc(NS(=O)(=O)c2ccc(NCN3C(=O)c4ccccc4C3=O)cc2)n1	-4	.	.	13	.	.	-2	1
Cc1cccc(NS(=O)(=O)c2ccc(C(=O)N3CC(C)OC(C)C3)cc2)c1C (centres undefined)	13	-12	i	2	.	.	2	-6
O=C(CCCn1c(=O)oc2ccccc21)Nc1cccnc1	-8	-17	i	14	-10	-6	0	2
CS(=O)(=O)Oc1ccc2c(c1)O/C(=C\c1cccc([N+](=O)[O-])c1)C2=O	-23	-3	i	0	2	16	-2	-4
COc1cccc(C2=CC(=O)C[C@H](c3ccc(Cl)cc3)C2)c1	-30	33	.	-26	.	.	0	-2
CCOC(=O)N1CCC2(CC1)CC(=O)c1c(ccc3oc(C(=O)O)c(C)c13)O2	.	3	i	.	-13	6	1	2
C=CC[C@]12C=C(OC)C(=O)C=C1O[C@@H](c1ccc3c(c1)OCO3)[C@H]2C	2	9	i	.	.	.	5	-3
[O-][n+]1onc2c1CCc1nnccc1-2	-19	-2	i	9	-3	-5	-1	1
O=C(O)CCn1c(=O)n(CCC(=O)O)c(=O)n(CCC(=O)O)c1=O	-16	1	i	5	7	12	-6	6

(cont.)
SMILES	Yeast UUG start	CSC inhib	Rce1 inhib	HIV Env fusion	eIF4H inh	PABP FP inh	MT1-MMP act inh	MT1-MMP act inh RFP
O=C(NCc1cccnc1)c1cccc(NS(=O)(=O)c2ccc(Br)cc2)c1	0	-1	i	.	.	.	.	.
COc1ccccc1C1=Nn2c(COc3ccccc3)nnc2SC1	.	0	i	.	-6	-16	.	.
CC1(NC(=O)Nc2cc([N+](=O)[O-])ccc2O)CCS(=O)(=O)C1 (centres undefined)	-25	-8	.	-4	.	.	5	-2
COC(=O)c1oc2ccc(Br)cc2c1NC(=O)c1ccccc1	-7	9	i	.	10	7	1	-3
CCCNS(=O)(=O)c1ccc(Oc2ncc(C(F)(F)F)cc2Cl)cc1	-7	0	i	-37	8	-3	3	-2
O=C(Nc1ccc(Nc2ccccc2)cc1)C(Cl)(Cl)Cl	.	20	i	0	3	6	5	5
COc1ccc(OC)c(C=Nc2ccccc2-c2nc3ccccc3[nH]2)c1	.	52	i	.	-4	3	2	-4
COCCOC1CCN(C(=O)c2ccc(OC)c(OC3CCN(C(C)C)CC3)c2)CC1	-3	-11	i	0	-5	-8	-4	0
O=C(NNC(=O)c1ccc2c(c1)OCO2)NC1CCCCC1	-10	13	i	.	4	12	-1	3
COc1cc(-c2ccc3c(=O)c4ccccc4sc3c2)cc(OC)c1OC	-17	16	.	-6	.	.	1	-4
